Compound activity as filed in PubChem.
HPGD block: HPGD (human) dehydrogenase inhibition; P15428; purified HPGD, NADH fluorescence kinetic, PGE2 substrate; Potency, µM, without a hit: at the top dose activity change, negative = inhibition, usual class: inhibitors; 150,000 compounds, 4.3% hits; AID 894; active = well fitted inhibition curve with a large enough effect (not every such curve was filed as active); inconclusive = small, poorly fitted or top-dose-only effect, or another doubt; inactive = no such curve, though single readings can be large or run the other way;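 further: top concentration of the series not given in the record; plate controls included wells without enzyme; inactives centre near -10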
Target sequence (P15428 whole entry, looked up): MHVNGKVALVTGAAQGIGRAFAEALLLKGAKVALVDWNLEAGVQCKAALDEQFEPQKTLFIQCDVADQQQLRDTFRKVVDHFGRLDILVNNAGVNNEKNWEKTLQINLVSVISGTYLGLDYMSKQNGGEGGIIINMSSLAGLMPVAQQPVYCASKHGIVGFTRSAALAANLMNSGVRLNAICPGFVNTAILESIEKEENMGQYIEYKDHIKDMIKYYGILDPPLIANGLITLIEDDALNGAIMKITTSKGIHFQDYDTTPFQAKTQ
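20 nM HPGD preincubated 15 min at room temperature with compound in 50 mM Tris-HCl pH 8, 0.01% Tween 20. Started with 1 mM NAD+ and 30 uM prostaglandin E2; NADH fluorescence (360/450 nm) read 5 times over 30-s intervals, last minus first.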
Active calls of the source: *; ? = inconclusive; & = joins results of further samples. On the % scale 0 is the no-effect control and ±100 the full control effect; potency means the concentration at half of the fitted maximal effect. These rows are one share of the data, so the mix of outcomes need not match the whole.

HPGD block | molecule
-15% | CCCCN(CC)S(=O)(=O)c1ccc(C(=O)Nc2nnc(COC)o2)cc1
1% | COc1ccccc1CC(=O)Nc1c[nH]c(=O)[nH]c1=O
-18% | O=S(=O)(NCC(c1ccccc1)N1CCNCC1)c1ccc(Cl)cc1 (configuration not stated)
-16% | Cc1ccc(Sc2c(C)nn(C(=O)CNS(=O)(=O)c3ccc(F)cc3)c2C)cc1
-4% | CC(C)NC(=S)NNC(=O)C12CC3CC(CC(C3)C1)C2
-1% | O=C(c1ccco1)N1CCC2(CCCN(Cc3ccncc3)C2)CC1
-18% | CCOc1cc(C(=O)OCc2ccc(C(=O)OC)o2)cc(Br)c1OC
? | COc1cc(O)cc(/C=C/c2ccccc2)c1
-9% | CCn1ncc(Cl)c1C(=O)NC(=S)Nc1c(C)cc(C)cc1[N+](=O)[O-]
-12% | C[C@](O)(C(=O)Nc1ccc(S(=O)(=O)c2ccccc2)cc1)C(F)(F)F
-17% | COc1cccc(C2CC(c3ccc(Cl)cc3)Nc3nc(N)nn32)c1 (configuration not stated)
-13% | c1cc2c(cc1Cn1cnnn1)OCO2

Remaining list, next part.
HPGD block | molecule
? | N#Cc1nc(-c2ccccc2)oc1NCC1CCCO1 (configuration not stated)
-9% | CC(C)(C)NC(=O)NC(=O)COC(=O)c1cccc(S(=O)(=O)N2CCCCC2)c1
-4% | Fc1ccc(Cl)cc1/C=N/n1cnnc1SCc1ccccc1
-11% | O=C1CCC([N+](=O)[O-])C(c2ccc(Cl)cc2Cl)N1 (configuration not stated)
-11% | Cn1cccc1CNC(=O)Nc1ccc(Cl)c(Cl)c1
-17% | O/N=C/c1ccc(OCc2ccccc2F)c(Cl)c1
-14% | CCn1c(SCC(=O)Nc2ccc3c(c2)OCO3)nnc1-c1cnccn1
-14%&-9%&-10% | CC1=C(/C=C/C(C)=C/C=C/C(C)=C\C(=O)O)C(C)(C)CCC1
-5% | C#CC1(O)CC(C)N(C)C(C)C1 (configuration not stated)
-11% | CCn1cc(C2=NC(C)(C)CO2)c2ccccc21
-8% | Cc1ccc(SCc2ccc(C(=O)Nc3cc([N+](=O)[O-])ccc3C)cc2)cc1
25µM* | Cc1cccc(-n2c(-c3ccoc3C)n[nH]c2=S)c1

Following part
HPGD block | molecule
-21% | O=C(NC(Cc1ccccc1)c1ccc2c(c1)OCCCO2)c1ccccc1 (configuration not stated)
-9% | CCNc1nc(NCC)n2c(SCC(=O)NCC3CCCCC3)nnc2n1
28µM* | COC(=O)C1=C(C)OC(N)=C(C#N)C1c1cc(C)sc1C (configuration not stated)
-2% | Cc1ccc2[nH]c(CCN(C)C)c(CC#N)c2c1
-7% | OCC[C@H]1C[C@H](O)[C@@H](O)[C@@]2(CCCCO2)O1
-14% | COc1ccccc1S(=O)(=O)Cc1ccc(C(=O)NC(C)c2ccc3c(c2)OCCO3)o1 (configuration not stated)
-25% | C=CCNc1nc2ccccc2nc1NS(=O)(=O)c1cccs1
0% | CCCOC(=O)c1ccc(S(N)(=O)=O)o1
-7% | CCCCc1nc(Cl)c(C#N)c2c1CSC(C)(C)C2
? | Cc1cc(=O)oc2cc(OCC3CC(c4ccc(Cl)cc4)=NO3)ccc12 (configuration not stated)
-24% | O=C(CSc1nnc(COc2cccc3cccnc23)o1)c1ccc(F)cc1
-24% | COc1ccc(Cn2c(-c3ccc(OC)cc3)nc3ccccc32)cc1

Following part.
HPGD block | molecule
2% | CC1CCN(C(=O)Cn2cc(C#N)c3ccccc32)CC1
-10% | Cc1ccc(S(=O)(=O)N2CCN(CC(=O)NC3CCCc4ccccc43)CC2)cc1C (configuration not stated)
-2% | COc1ccc(-c2cccc(-c3cc(=O)oc4cc(OC)c(OC)c(OC)c34)c2)cc1
-2% | COc1ccc(-c2nc3c(c4c2C[C@H](c2ccccc2)OC4)CN(C(=O)c2cc(I)ccc2F)CC3)c(C)c1
-12% | O=C(Nc1cc(C(F)(F)F)ccc1N1CCOCC1)c1cccc(F)c1
-15% | COCCn1c(SCc2cccnc2)nnc1-c1ccco1
-2% | Cc1cc(C)cc(N2CC(c3nc4ccccc4n3C)CC2=O)c1 (configuration not stated)
-3% | Cc1ccc(S(=O)(=O)NCCSc2ccccc2)cc1[N+](=O)[O-]
-5% | COc1ccc(NC(=O)CC2CCCCC2)cc1OC
-9% | COCCNc1nnc(SCC(=O)N2CCN(S(=O)(=O)c3ccccc3)CC2)s1
-15% | CC(=O)Nc1ccc2ccccc2c1
18µM* | COc1ccc(-c2noc(-c3ccc(Cl)cc3[N+](=O)[O-])n2)cc1OC

18 entries already listed, sorted by heavy-atom count, lowest first:
HPGD block | molecule
-15% | CC(=O)Nc1ccc2ccccc2c1
0% | CCCOC(=O)c1ccc(S(N)(=O)=O)o1
-7% | OCC[C@H]1C[C@H](O)[C@@H](O)[C@@]2(CCCCO2)O1
-2% | Cc1ccc2[nH]c(CCN(C)C)c(CC#N)c2c1
-7% | CCCCc1nc(Cl)c(C#N)c2c1CSC(C)(C)C2
-5% | COc1ccc(NC(=O)CC2CCCCC2)cc1OC
28µM* | COC(=O)C1=C(C)OC(N)=C(C#N)C1c1cc(C)sc1C (configuration not stated)
-15% | COCCn1c(SCc2cccnc2)nnc1-c1ccco1
-25% | C=CCNc1nc2ccccc2nc1NS(=O)(=O)c1cccs1
-2% | Cc1cc(C)cc(N2CC(c3nc4ccccc4n3C)CC2=O)c1 (configuration not stated)
18µM* | COc1ccc(-c2noc(-c3ccc(Cl)cc3[N+](=O)[O-])n2)cc1OC
? | Cc1cc(=O)oc2cc(OCC3CC(c4ccc(Cl)cc4)=NO3)ccc12 (configuration not stated)
-9% | CCNc1nc(NCC)n2c(SCC(=O)NCC3CCCCC3)nnc2n1
-24% | O=C(CSc1nnc(COc2cccc3cccnc23)o1)c1ccc(F)cc1
-9% | COCCNc1nnc(SCC(=O)N2CCN(S(=O)(=O)c3ccccc3)CC2)s1
-2% | COc1ccc(-c2cccc(-c3cc(=O)oc4cc(OC)c(OC)c(OC)c34)c2)cc1
-14% | COc1ccccc1S(=O)(=O)Cc1ccc(C(=O)NC(C)c2ccc3c(c2)OCCO3)o1 (configuration not stated)
-2% | COc1ccc(-c2nc3c(c4c2C[C@H](c2ccccc2)OC4)CN(C(=O)c2cc(I)ccc2F)CC3)c(C)c1

Additional compounds
HPGD block | molecule
-18% | Cc1ccccc1N/C(SCc1ccc(Cl)cc1)=C(/C#N)C(N)=O
-18% | Cc1ccc(/C=C(\NC(=O)c2ccccc2)C(=O)NCCc2ccccn2)o1
-16% | O=C(CCn1c(=O)oc2ccccc21)N1CCCCCC1
-22% | CCn1c(SCc2nc3ccccc3[nH]2)nnc1-c1cccs1
25µM* | CC1=NN(c2ccc(Cl)cc2)C(=O)C1C(c1cccc(O)c1)c1c(C)[nH]n(-c2ccc(Cl)cc2)c1=O (configuration not stated)
-3% | O=C(CCn1c(=O)oc2ccccc21)NCCCN1CCN(c2ccc(F)cc2)CC1
-10% | CCc1sc(NC(=O)c2cc3ccccc3oc2=O)nc1-c1cccs1
-11% | COc1ccc2sc(NC(=O)c3ccco3)nc2c1
28µM* | Cc1ccsc1/C=N/n1c(-c2ccccn2)n[nH]c1=S
-25% | CCOC(=O)CNC(=O)c1nn(-c2ccc(OCC)cc2)c(=O)c2ccccc12
0% | COc1ccc(OCC2CNC(=O)O2)cc1 (configuration not stated)
? | O=c1c(-c2cccs2)nc2cnc(Oc3cccc(Cl)c3)nc2n1C[C@H]1CCCO1

In another format: 2 of the compounds above
SMILES	HPGD block
Cc1ccc(/C=C(\NC(=O)c2ccccc2)C(=O)NCCc2ccccn2)o1	-18%
O=C(CCn1c(=O)oc2ccccc21)N1CCCCCC1	-16%

Next results:
HPGD block | molecule
-7% | Cc1ccoc1C(=O)NCc1occc1C(=O)O
-11% | O=C(CNC(=O)OCc1ccccc1)NCC(=O)N1CCCC1C(=O)OCc1ccccc1 (configuration not stated)
-19% | CCOC(=O)c1c(C)c(C(=O)NC(C)COC)c(C)n1CC (configuration not stated)
-4% | COc1ccc(NC(=S)NCCC(c2ccccc2)c2ccccc2)c(OC)c1
4% | CCCS(=O)(=O)N1CCCC(C(=O)NCCN(CC)CC)C1 (configuration not stated)
-4% | CCOc1ccc(N2C(=O)c3cccnc3C2Nc2ccc(C)cc2)cc1 (configuration not stated)
-2% | O=C(Nc1cccc(Cl)c1)c1ccncc1
-9% | Cc1nn(Cc2ccc(Cl)cc2)c(C)c1NC(=O)c1noc2c1CCc1ccccc1-2
-11% | COc1ccc(C)cc1NCc1cc(=O)oc2cc(-c3ccccc3)c(O)cc12
-4% | O=C1C2C3C=CC([C@@H]2C(=O)N1C1CCCCC1)[C@H]1C(=O)N(C2CCCCC2)C(=O)C31 (some centres not stated)
-11% | c1ccc(N2CCCCC2)c(NC2=NCCC2)c1
3% | NS(=O)(=O)c1ccc(CNC(=O)NC23CC4CC(CC(C4)C2)C3)cc1

Next section
HPGD block | molecule
-1% | Cn1c(C(=O)N2CCCC(C(=O)N3CCN(C(=O)c4ccco4)CC3)C2)cc2sccc21 (configuration not stated)
-17% | CCN(CC)c1ccc(/C=N/NC(=O)CCC(=O)NCc2ccccc2)c(O)c1
-5% | Cc1ccc(C(=O)O/N=C(\N)c2cccnc2)cc1[N+](=O)[O-]
-16% | Cc1ccc(NC(=O)C2(N(C(=O)Cn3nnnc3N)c3ccc(C)cc3)CCCCC2)cc1
-2% | Cn1c(COc2ccc3ccccc3c2)nnc1SCC(N)=O
-8% | CC(C)c1ccc(/C=N/NC(=O)C(=O)NCCCN2CCOCC2)cc1
-6% | Clc1ccc(CNc2nnnn2-c2ccccc2)c(Cl)c1
1% | O=C(c1cccs1)N1CCN(Cc2cccc([N+](=O)[O-])c2)CC1
? | COc1cccc2c(=O)ccoc12
-11% | COc1ccc(NC(=O)c2csc(Cc3ccccc3)n2)cc1
-8% | CC1CCN(C(=S)c2cn(Cc3ccc(F)cc3)c3ccccc23)CC1
-28% | CN1CCc2c1nc1ccccc1c2N=C1CCCN1Cc1ccccc1

(more compounds)
HPGD block | molecule
-2% | CN(C)N1C(N)=C(C#N)C(c2ccsc2)C2=C1CC(C)(C)CC2=O (configuration not stated)
-9%&-4% | COCC(=O)O[C@]1(CCN(C)CCCc2nc3ccccc3[nH]2)CCc2cc(F)ccc2[C@@H]1C(C)C
-13% | CCOC(=O)CSc1nnc(NC(=O)c2cccc([N+](=O)[O-])c2C)s1
? | COc1ccc2c(c1OC)C(=O)N(c1ccccn1)C2
-14% | CCN(CC)c1ccc(C(=O)N2CCN(Cc3ccccc3)CC2)cc1
-18% | CN(C(=O)CSc1nc(-c2ccccc2)cn1N)C(c1ccccc1)c1ccccc1
-9%&-2%&-12% | NCCCCNCCCN
-18% | COc1ccc2oc(=O)c(-c3csc(Nc4cccc(O)c4)n3)cc2c1
1.8µM* | O=C(CC(c1ccccc1)c1ccccc1O)N1CCCC1 (configuration not stated)
-9% | CCCCC1=CC2=C(OC(C)=O)C(=O)C(C)(OC(=O)CCC(=O)OC)C(=O)C2=CO1 (configuration not stated)
? | COc1ccc(NC(=O)c2cc(-c3cc(C)cc(C)c3O)n[nH]2)cc1Cl
-15% | CC(=O)c1cn(CC(=O)Nc2ccccc2C)c2ccccc12

Further structures:
HPGD block | molecule
1% | Cc1ccc(S(=O)(=O)NCCN=C(CN2CCCC2)NS(=O)(=O)c2ccc(C)cc2)cc1
-8% | COc1ccc(Nc2sc(C(=O)Nc3cccc(Cl)c3)c(N)c2C(=O)Nc2ccccc2OC)cc1
-26% | O=C(Cc1c(O)c2ccccc2[nH]c1=O)NC1CCCCCCC1
? | O=C1c2cccnc2C(Nc2ccccc2)N1Cc1ccco1 (configuration not stated)
-29% | COc1ccc([N+](=O)[O-])cc1C1NN=C(c2ccccc2O)S1 (configuration not stated)
3% | COC(=O)c1cccc(NC(=O)CN2CCN(Cc3ccccc3)CC2)c1
-9% | CC1(C)CC(CC(=O)O)C(=O)O1 (configuration not stated)
-6% | O=C(CN(C1CCCCC1)S(=O)(=O)c1ccc(F)cc1)NC1CC1
-4% | NC(=O)CS(=O)(=O)c1nc2ccccc2n1Cc1ccccc1F
-14% | O=C(O)CSCC(=O)Nc1ccc(C2CCCCC2)cc1
-2% | Cc1sc2nc(C3CC3)nc(NCCNS(C)(=O)=O)c2c1C
-5% | C=CCNc1nc(C2(C)CC3(CC(C)OC3=O)C(=O)O2)cs1 (configuration not stated)

(cont.)
HPGD block | molecule
? | O=C(CSc1nnc(-c2ccccc2)o1)c1nnc(-c2ccccc2)o1
-17% | COc1ccc(/C(N)=N/OC(=O)CSc2ccccc2)cc1
-3% | O=C(COc1ccc(Cl)cc1)OCC(=O)N1CCCc2ccccc21
0% | O=C(O)CCNC(=O)c1cncc(Br)c1
-9% | CS(=O)(=O)N(CC(=O)N1CCN(Cc2ccc3c(c2)OCO3)CC1)c1ccc2c(c1)OCO2
28µM* | N#Cc1cc([N+](=O)[O-])c(-n2nnc3ccccc32)c([N+](=O)[O-])c1
? | O=C(Nc1nc2ccccc2n1CCN1CCCC1)C1CCCCC1
3% | CCOC(=O)c1cnn(CCOC(=O)C2CC2)c1NC(=O)C1CC1
-7% | O=C(N/N=C/c1ccncc1)c1cc([N+](=O)[O-])cc([N+](=O)[O-])c1
-9% | O=C(O)COc1ccc2c(c1)CCCC2
-4% | Cc1ccc(NC(=O)N(Cc2ccco2)C(C)c2ccco2)cc1C (configuration not stated)
-16% | CCOC(=O)c1c(C)[nH]c(=S)c(C#N)c1-c1ccc(Cl)cc1

Following part
HPGD block | molecule
-13% | Cc1cc(O)c(NC(=O)c2ccco2)cc1C
? | COc1cc(=O)n(C)c2cc(N(C)C)ccc12
-14% | CSc1nc2c(c(=O)n1-c1ccccc1)SCC2
2% | COc1ccccc1N(CC(=O)N1CCCCCC1)S(C)(=O)=O
? | CCOC(=O)/C(C#N)=C/c1cc2ccc(C)cc2nc1Cl
-2% | Cc1ccc(S(=O)(=O)N2CCOCC2)cc1NC(=O)COC(=O)c1ccccc1OCc1c(C)noc1C
? | O=C(CCc1ccc(CCC(=O)c2cccs2)s1)c1cccs1
